# Compound activity as filed in PubChem BioAssay.
# Arbovirus inh: blocks arbovirus infection. inhibition, % at 10 µM. arbovirus infection cell-based antiviral screen. AID 1251. 200,000 tested, 0.37% active;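 active = inhibition from about 30%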;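 also: bluetongue infection of BSR cells; cell survival read as ATP light after 72 h; 0% = infected wells without compound and 100% = uninfected wells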
# Mtb H37Rv: M. tuberculosis H37Rv growth inhibitors, H37Rv strain (AID 1626); inhibition, % at 10 µM, or IC50 in µM where a hit was titrated; M. tuberculosis H37Rv growth inhibition; higher % means a stronger effect; 220,000 tested, 0.95% active;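 active = confirmed in a dose series; inconclusive = inhibition above 80% but not taken into the dose series; inactive = below 80% or under 30% at every dose of the series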;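 also: bacteria incubated seven days before Alamar blue readout; 0% = bacteria only wells and 100% = bacteria with antibiotic wells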
# YopH PTP inh: YopH (Yersinia) phosphatase inhibition; inhibition, %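 (about 10 µM by stock and volumes)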; 140,000 tested, 0.16% active; fluorescence Ex485/Em525;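 active = inhibition of 50% or more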;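 also: controls were vehicle for no effect and minimum signal wells for full effect; inactives centre near -20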
# Mtb bLac sens: beta-lactam sensitization of Mtb H37Rv; M. tuberculosis H37Rv growth with meropenem, percent inhibition; hits of this screen are not shown here; inhibition, % at 25 µM; 330,000 tested, 0.27% active;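 active = about 74% or more and at least 40 points above the plate without the antibiotic, then above 30% in a dose series; inconclusive = first-round hits that could not be retested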;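 also: growth measured after seven days incubation then overnight dye step; 0% = bacteria only wells and 100% = bacteria with antibiotic; twin plates without the antibiotic show which effects depend on it; some results filed as inactive read as strong as hits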
# RecA intein inh: blocks M. tuberculosis RecA intein splicing | P9WHJ3 | 290,000 tested, 0.75% active | cell-free RecA intein splicing, fluorescence | inhibition, %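 (about 9 µM by stock and volumes)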; in the data active = inhibition above about 30%; inconclusive = no clear call, values can overlap the other calls;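 also: 0% = vehicle wells and 100% = reference inhibitor control wells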
# Target sequence (P9WHJ3 whole entry, looked up): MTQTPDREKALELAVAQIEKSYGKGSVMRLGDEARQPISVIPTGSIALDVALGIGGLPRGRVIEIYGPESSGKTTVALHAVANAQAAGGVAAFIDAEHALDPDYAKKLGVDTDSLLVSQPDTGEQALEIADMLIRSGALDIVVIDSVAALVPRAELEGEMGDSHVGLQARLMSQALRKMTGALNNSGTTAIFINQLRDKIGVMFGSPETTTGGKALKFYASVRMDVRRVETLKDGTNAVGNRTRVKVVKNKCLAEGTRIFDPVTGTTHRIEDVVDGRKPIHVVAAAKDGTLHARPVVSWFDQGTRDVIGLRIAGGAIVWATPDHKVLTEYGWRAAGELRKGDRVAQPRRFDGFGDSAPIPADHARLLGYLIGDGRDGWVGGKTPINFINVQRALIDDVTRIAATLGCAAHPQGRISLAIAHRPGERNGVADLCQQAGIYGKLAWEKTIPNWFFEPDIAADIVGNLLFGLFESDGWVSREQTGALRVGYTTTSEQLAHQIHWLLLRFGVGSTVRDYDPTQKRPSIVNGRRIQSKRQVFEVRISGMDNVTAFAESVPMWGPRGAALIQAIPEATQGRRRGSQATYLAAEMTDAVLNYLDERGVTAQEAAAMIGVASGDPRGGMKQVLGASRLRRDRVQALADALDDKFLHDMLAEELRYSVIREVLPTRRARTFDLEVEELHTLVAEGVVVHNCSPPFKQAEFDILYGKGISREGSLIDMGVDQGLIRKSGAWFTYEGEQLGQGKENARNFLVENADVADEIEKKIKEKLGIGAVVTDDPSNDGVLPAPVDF
# Arbovirus inh repeat: further read-out of Arbovirus inh, marked with its call; inhibition, %; measured here: 10K subset replicate screen; many hits read low in the repeat;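 first of two repeat runs on a subset; 0% = infected and 100% = uninfected wells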
# An asterisk follows results filed as active; ? = inconclusive; . = no result given; & = joins results of further samples. The list is partial; count on the stated rates, not on these rows.
# Preview (7 entries):
SMILES,Arbovirus inh,Mtb H37Rv,YopH PTP inh,Mtb bLac sens,RecA intein inh,others
O=C(c1ccc(F)cc1)C(C(=O)N1CCCCC1)n1ccccc1=O (centres undefined),7,-4%,.,-8,.,
CCOc1ccc(NC(=O)CC2C(=O)N(c3ccc(OCC)cc3)C(=S)N2C2CC2)cc1 (centres undefined),.,.,.,-6,-2.5,
COc1ccc(NC(=O)CSc2nnc(Cn3c(=O)sc4ccccc43)n2C)cc1OC,0,-2%,-36,6,.,Arbovirus inh repeat=-4
Cn1c(SCC(=O)Nc2ccc(N3CCOCC3)cc2)nnc1-c1ccco1,.,.,.,-6,-2.2,
O=C(Nc1cc(S(=O)(=O)N2CCCCC2)ccc1Cl)C1=NN(c2ccccc2)C(=O)CC1,.,.,.,16,-1.3,
COCCCn1c(C(=O)NC2CCCCC2C)cc2c(=O)n3cccc(C)c3nc21 (centres undefined),.,.,.,8,1.2,
CCC1CCCCN1CCCNC(=O)CN1C(=O)c2cccnc2Oc2ccc(Cl)cc21 (centres undefined),.,.,.,?,2.7,

# This part in full, repeating the preview:
SMILES,Arbovirus inh,Mtb H37Rv,YopH PTP inh,Mtb bLac sens,RecA intein inh,others
O=C(c1ccc(F)cc1)C(C(=O)N1CCCCC1)n1ccccc1=O (centres undefined),7,-4%,.,-8,.,
CCOc1ccc(NC(=O)CC2C(=O)N(c3ccc(OCC)cc3)C(=S)N2C2CC2)cc1 (centres undefined),.,.,.,-6,-2.5,
COc1ccc(NC(=O)CSc2nnc(Cn3c(=O)sc4ccccc43)n2C)cc1OC,0,-2%,-36,6,.,Arbovirus inh repeat=-4
Cn1c(SCC(=O)Nc2ccc(N3CCOCC3)cc2)nnc1-c1ccco1,.,.,.,-6,-2.2,
O=C(Nc1cc(S(=O)(=O)N2CCCCC2)ccc1Cl)C1=NN(c2ccccc2)C(=O)CC1,.,.,.,16,-1.3,
COCCCn1c(C(=O)NC2CCCCC2C)cc2c(=O)n3cccc(C)c3nc21 (centres undefined),.,.,.,8,1.2,
CCC1CCCCN1CCCNC(=O)CN1C(=O)c2cccnc2Oc2ccc(Cl)cc21 (centres undefined),.,.,.,?,2.7,
CCC(C(=O)NCc1ccco1)N(C(=O)CNS(=O)(=O)c1ccccc1)C1CCCCC1 (centres undefined),4,-10%,-5,-5,0.4,
Cc1cccc(-n2c(SCC(=O)Nc3ccc4c(c3)OCO4)nnc2-c2ccoc2C)c1,-8,4%,-42,0,-0.1,
C=CCNC(=O)c1cn(CC)c2cc(N3CCN(C(=O)c4ccco4)CC3)c(F)cc2c1=O,.,.,.,86,-2.4,
Cc1ccc(S(=O)(=O)CC(=O)c2ccc([N+](=O)[O-])cc2)cc1,.,5%,.,10,-2.0,
Cc1cccc(N2CCN(C(=O)c3cccc(S(=O)(=O)N4CCc5ccccc5C4)c3)CC2C)c1 (centres undefined),15,9%,-24,6,-4.0,
Cc1cc(C)c(C)c(S(=O)(=O)NC2CCN(Cc3ccccc3)CC2)c1C,-15,5%,.,4,0.9,
Cc1ccccc1-c1nn2c(-c3ccccc3)nnc2s1,3,7%,11,76,1.3,
CCCNC(=O)c1ccccc1NC(=O)c1ccccc1N(C)S(C)(=O)=O,5,-8%,-3,-2,-2.3,
CCCC(=O)C1=C(SCC)CC(C)(C)C(C(=O)OC)C1=O (centres undefined),-6,-1%,-31,-4,-0.6,Arbovirus inh repeat=-1
CCNC(=O)OCc1cn(-c2ccccc2)nn1,11,1%,.,-1,-2.9,
Cc1ccc(S(=O)(=O)c2cc3c(=O)n4cccc(C)c4nc3n(C3CCCCC3)c2=N)cc1,.,.,.,-8,-4.0,
Cc1cc(NC(=O)CSc2cc(Cl)ccc2Cl)n(-c2ccccc2)n1,8,8%,-14,-6,-1.6,
Cc1ccc(S(=O)(=O)N2CCC(C(=O)N[C@@H](Cc3ccccc3)C(=O)O)CC2)cc1,12,-6%,-29,-18,-3.4,
Cc1ccc(C(=O)Oc2ccc(/C=N/NC(N)=O)cc2)cc1,2,0%,.,0,-1.2,
COc1ccnc(Oc2ccccc2)c1C(=O)N/C=N/OCc1ccc(F)cc1Cl,22,-1%,2,0,-2.3,
O=c1[nH]c(=O)n(-c2cccc3ccccc23)c(O)c1C=NCc1ccc2c(c1)OCO2,-6,-4%,-26,-3,1.0,
CCN1CN(Cc2ccccc2)CNC1=S,4,-2%,-22,5,-11,
Cc1ccc(SCc2[nH]nc3c2C(C(C)C)C(C#N)=C(N)O3)cc1 (centres undefined),-1,-1%,-14,-1,7.2,

# Later entries:
SMILES,Arbovirus inh,Mtb H37Rv,YopH PTP inh,Mtb bLac sens,RecA intein inh,others
CCCOc1ccc(-c2nc(=S)[nH][nH]2)cc1,-6,-6%,-5,5,-1.2,
Cc1ccc(/C=C2\SC(=S)N(CCC(=O)NNC(=O)c3cccnc3)C2=O)cc1,13,-15%,-26,-4,1.0,
O=C(CCC1CCCN(C(=O)CCN2CCCCC2=O)C1)NCc1ccccc1F (centres undefined),-7,10%,.,2,-1.0,
O=C(c1c[nH]c(C(=O)C(Cl)(Cl)Cl)c1)c1ccc(F)cc1Cl,-28,-1%,.,70,54*,
CCOC(=O)c1c(NC(=O)CN2C(=O)NC(C)(c3ccccc3)C2=O)sc(C)c1C (centres undefined),-22,3%,-12,-5,1.1,
CC(C)CCc1noc(CN2CCC(C(=O)N3CCOCC3)CC2)n1,.,-14%,.,-8,-2.9,
Cc1ccc(-c2n[nH]c(=O)c3ccccc23)cc1S(=O)(=O)N(C)C,.,.,.,2,1.5,
COc1cc(/C=N/N=C2/NC(=O)C(Cc3ccc(F)cc3)S2)ccc1O (centres undefined),-3,6%,.,5,0.5,
O=C(Nc1ccc(C(=O)O)cc1)/C(=C\c1ccc2c(c1)OCO2)NC(=O)c1ccc(Br)cc1,8,7%,.,-3,1.9,
Cc1ccc(S(=O)(=O)c2c(N)n(Cc3ccco3)c3nc4ccccc4nc23)cc1C,-23,9%,-16,-15,-8.4,
Cc1ccc(S(=O)(=O)c2nc(C)oc2NCc2ccccc2)cc1,5,-4%,-11,-8,.,
CCNC(=S)N/N=C/c1cc(C)ccc1C,-1,46%,-11,86,0.1,
CCN1C(=O)[C@H]2[C@@H](c3ccc(-c4cccc(Cl)c4)c(OC)c3)N[C@@](CC(C)C)(C(=O)OC)[C@H]2C1=O,.,.,.,-3,1.6,
COc1ccc(NC(=O)C(C)N2C(=O)C3CC=C(Cl)CC3C2=O)cc1 (centres undefined),.,.,.,-1,-0.7,
COc1ccccc1Cc1nnc(NC(=O)C2CCN(C(=O)c3ccco3)CC2)s1,.,.,.,1,3.0,
O=C(N/C(=C\c1ccccc1)C(=O)N1CCCCCC1)c1ccccc1,-10,-8%,.,-8,0.0,
COc1ccc(/C=C2/N=C3CCCCCN3C2=O)cc1OC,15,-14%,8,0,6.5,
CCCCCn1c(=O)c(C(=O)Nc2ccccn2)c(O)c2ccccc21,.,.,.,-6,0.3,
CN(Cc1cnn(C)c1)Cc1nc(COc2ccccc2)no1,1,5%,.,1,-1.3,
O=C(OCC(=O)c1ccc[nH]1)c1ccc(S(=O)(=O)N2CCCCC2)cc1,2,-10%,23,.,0.3,Arbovirus inh repeat=3
Cc1nnc(SCC(=O)c2cc(C)n(C3CC3)c2C)s1,5,-2%,-27,6,7.3,
O=C(COc1ccccc1Br)NCc1ccco1,-4,0%,-40,-15,0.9,Arbovirus inh repeat=-5
CN(C)CCCNc1nc(-c2ccc(Cl)cc2)nc2ccccc12,.,.,.,2,-0.5,
O=C(Nc1cnccn1)c1csc2ccccc12,-4,-1%,-20,-8,2.2,
CCCCNC(=O)N(CC)c1c(N)n(Cc2ccccc2)c(=O)[nH]c1=O,3,4%,.,-13,1.1,

# Next structures.
SMILES,Arbovirus inh,Mtb H37Rv,YopH PTP inh,Mtb bLac sens,RecA intein inh,others
CCOC(=O)C1CCN(C(=O)CSc2nnc(-c3ccco3)n2-c2ccccc2)CC1,-1,-14%,-31,-11,1.4,
Cc1cc(=O)oc2c3c(cc(OCC(=O)NCc4cccnc4)c12)OC(C)(C)CC3,.,.,.,2,-9.6,
CN(C)S(=O)(=O)c1ccc(N2CCCC2)c(C(=O)Nc2nc3ccc(F)cc3s2)c1,8,2%,-32,0,-7.8,
COc1ccc(NC(=O)CN(C)C2CCCCC2)c([N+](=O)[O-])c1,0,16%,-5,8,-0.5,
Cc1nc([N+](=O)[O-])cn1CC(=O)c1ccc(F)cc1,.,.,.,-1,-0.3,
Cc1ccnc(NC(=O)CS(=O)(=O)Cc2ccccc2)c1,4,-7%,-18,-2,-5.1,
Cc1nnsc1C(=O)N(Cc1ccccc1)C(C)C,.,-4%,.,-12,-0.5,
C=CCn1c(SCC(=O)c2cccs2)nnc1-c1cccc(OC)c1,6,-2%,-13,5,1.1,
COc1cc(OC)cc(C(=O)NCc2ccc3[nH]c(C)cc3c2)c1,4,1%,.,55,-2.7,
CC(/C=C\c1cccnc1)=C/C(=O)O,3&4,0%&2%,-20&-13,-4&2,-2.8&-0.8,
CC[C@@H](C)[C@H](NC(=O)CNC(=O)Cc1c(C)c2c(cc(C)c3c(C)coc32)oc1=O)C(=O)O,.,.,.,1,-2.6,
CCCCN(CC)C(=O)c1ccc(-c2ccccc2)cc1,0,14%,-18,4,7.3,
CCOC(=O)c1cc(-c2ccccc2)n(CC(=O)NC(C)(C)C)c1C,13,0%,.,3,0.3,
Cc1ccc(NC(=O)C(c2ccc(Cl)cc2)N2CCCCC2)cc1 (centres undefined),2,-11%,-35,.,.,
Cc1ccc(C)c(CN2CCC(n3nnc4cc(F)ccc43)CC2)c1,7,3%,-24,1,-0.6,
O=C(NC1CCS(=O)(=O)C1)c1ccc(N2CCCCC2)c([N+](=O)[O-])c1 (centres undefined),.,.,.,-10,-0.2,
O=C(c1cc(-c2ccccc2Cl)nc2ccc(Br)cc12)N1CCN(c2ccccn2)CC1,.,.,.,-3,1.3,
COc1cccc(C(=O)c2c(C)c(CCC#N)n3ccccc23)c1,5,3%,.,-7,1.0,
Cc1ccc(S(=O)(=O)CCC(=O)N2CCN(c3ccccc3F)CC2)cc1,.,.,.,4,1.0,
Cc1ccc(SC[C@H](C)CN2CC[C@H](C)CCC2=O)cc1,.,.,.,-3,4.0,
O=C(O)c1ccc(/C=N/NC(=O)c2ccc(F)cc2)cc1,.,-1%,.,-3,0.7,
Cc1cc(NC(=O)CSc2nc3c(c(=O)n2Cc2ccccc2)SC(C)C3)no1 (centres undefined),1,5%,.,4,0.8,Arbovirus inh repeat=-1
CC(NC(=O)/C(C#N)=C1\N=C(NC(=O)c2cccs2)c2ccccc21)c1ccccc1 (centres undefined),-9,1%,-18,5,-4.5,
CCOc1ccc(S(=O)(=O)N2CCOCC2)cc1NC(=O)CSCc1c(C)noc1C,.,.,.,-7,-2.6,
O=C(Nc1ncc2c(n1)-c1ccccc1OC2)c1ccccc1Cl,-4,-4%,-30,6,-1.7,

# Continued.
SMILES,Arbovirus inh,Mtb H37Rv,YopH PTP inh,Mtb bLac sens,RecA intein inh,others
O=C(NCCc1c[nH]c2ccccc12)c1ccc([N+](=O)[O-])cc1,-3,10%,-3,5,-1.2,
Cn1c(=O)c2cc3c(nc2n(C)c1=O)CC(c1ccccc1)CC3=O (centres undefined),.,-9%,.,-3,7.5,
COc1ccc(NC(=O)CCN2CCN(S(=O)(=O)c3ccc(Br)cc3)CC2)cc1,.,.,.,-4,-13,
O=C(O)/C=C/C(=O)Nc1cc(F)ccc1F,.,-18%,.,-8,-0.2,
Cc1ccc(CC(=O)NCc2cccnc2)cc1,10,5%,.,5,-1.5,
COc1cccc(NC(=O)Cc2nnc(SCC(=O)NC(C)c3ccccc3)n2C)c1 (centres undefined),-1,2%,7,-3,-2.3,
CCOc1cc(/C=N\NC(=O)c2ccc(NC(=O)C(C)(C)C)cc2)ccc1OC(=O)c1ccc(OC)cc1,-5,3%,-18,8,1.1,
CC(C(=O)N1CCOCC1)n1cc([N+](=O)[O-])cn1 (centres undefined),0,0%,.,8,-3.0,
O=C(Nn1cnnc1)c1ccc(F)c(S(=O)(=O)N2CCCCC2)c1,3,-3%,-3,-5,-0.7,
CCN(CC)CCCN(C(=O)c1ccco1)c1nc(-c2ccc(Cl)cc2)cs1,.,.,.,45,6.0,
Cc1cc(C(=O)COC(=O)c2cccnc2Cl)c(C)n1-c1c(C)n(C)n(-c2ccccc2)c1=O,1,-2%,.,6,.,
O=C(Cc1ccccc1)NCCSCc1ccc(Cl)cc1,0,-7%,-26,52,3.4,
COc1ccc(-c2csc(NC(=O)Cc3ccccc3)n2)cc1OC,.,.,.,14,5.6,
Fc1ccc(N2CCN(c3nc(CN4CCOCC4)nc4scc(-c5ccccc5)c34)CC2)cc1,-13,?,.,98,20,
COc1ccc(/C(C)=N/NC(=O)CNC(=O)c2cccs2)cc1,1,3%,.,-1,0.6,
CC(Oc1ccc(Br)cc1)C(=O)Nc1ccc(S(=O)(=O)N(C)C2CCN(C)CC2)cc1 (centres undefined),.,.,.,1,-0.5,
